# DUX4 txn inh = DUX4-mediated transcription inhibition. 293T-iDUX4 ZSCAN4-Gaussia luciferase reporter, 24 h; stronger effect = lower value. activity change, negative = inhibition, % (concentration not given with the values). hit rate 0.8% among 37,000;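 active means -10% or lower and over 25 points stronger than a control reporter; inconclusive means -10% or lower with a smaller gap; inactive means above -10%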;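 further: 0% = median of neutral control wells and -100% = median of positive control wells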
# DUX4 txn inh difference = further read-out of DUX4 txn inh, marked with its call; Gaussia minus Italica difference, %; measured here: selective DUX4 reporter inhibition;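 worked out from the two reporters; negative = selective loss of the DUX4 reporter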
# DUX4 txn inh control = recorded beside DUX4 txn inh, whose call it bears; activity change, negative = inhibition, %; measured here: Italica tet-on control reporter;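 0 = neutral control and -100 = positive control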
# Numbers without * were called inactive; u = inconclusive; x = no result given. An excerpt (hit frequency here may not be typical).
SMILES,DUX4 txn inh,DUX4 txn inh difference,DUX4 txn inh control
Cc1ccc(S(=O)(=O)Nc2ccc3c(c2)C(=O)N([C@@H](C)CO)C[C@@H](C)[C@@H](CN(C)S(=O)(=O)c2cccs2)OCCCC[C@@H](C)O3)cc1,1,-1,1.9
C[C@H](CO)N1C[C@H](C)[C@@H](CN(C)C(=O)c2ccc3ccn(C)c3c2)OCc2cn(nn2)CCCC1=O,-4,-2,-1.8
C[C@@H]1CN([C@@H](C)CO)C(=O)c2cc(NS(=O)(=O)c3cccs3)ccc2O[C@@H](C)CCCCO[C@H]1CN(C)S(=O)(=O)c1cn(C)cn1,1,3,-1.3
COc1ccc2c3c([nH]c2c1)[C@@H](CO)N(C(=O)c1ccccn1)CC31CN(S(C)(=O)=O)C1,12,-2,14
CN(C)C(=O)c1cccc(-c2ccc3c(c2)[C@@H]2[C@@H](CCN2C(=O)C2CCOCC2)[C@@H](CO)N3)c1,-9,-16,7.3
CCCN(C)C[C@H]1Oc2ncc(C#CCN(C)C)cc2C(=O)N([C@H](C)CO)C[C@H]1C,-5,-3,-2.2
Cc1noc(C)c1S(=O)(=O)Nc1ccc2c(c1)C(=O)N([C@@H](C)CO)C[C@H](C)[C@H](CN(C)C(=O)Nc1cccc3ccccc13)OCCCC[C@H](C)O2,2,-1,2.6
COc1ccccc1-c1ccccc1[C@H]1[C@H](C#N)N(C(=O)C2CCC2)[C@H]1CO,-9,-12,2.4
CCN1[C@@H]2Cn3c(ccc(-c4ccncc4)c3=O)[C@H]1[C@@H](C(=O)NCCc1cn(C)cn1)[C@@H]2CO,-3,-5,2.1
CS(=O)(=O)N1[C@@H]2c3ccc(-c4cccc(F)c4)c(=O)n3C[C@H]1[C@H](CO)[C@H]2C(=O)N1CCOCC1,-1,-2,0.7
CN(C)CC(=O)Nc1ccc2c(c1)C(=O)N(C)[C@H]1CC[C@H](CC(=O)Nc3ccc(F)cc3)O[C@@H]1CO2,3,1,2.3
C[C@H]1CN([C@@H](C)CO)C(=O)c2c(c3ccccc3n2C)-c2ccccc2CO[C@@H]1CN(C)C(=O)Cc1ccccc1,u,x,x
CCCN(C)C[C@H]1OCc2cn(nn2)CCCC(=O)N([C@H](C)CO)C[C@H]1C,-2,1,-2.8
COc1ccc(NC(=O)N2C[C@@H](O)COC[C@@H]3O[C@@H](CC(=O)N4CCCCC4)CC[C@H]32)cc1,5,-9,14
CCCC(=O)Nc1ccc2c(c1)OC[C@@H](C)N(C(=O)c1cccnc1)C[C@H](C)[C@@H](OC)CN(C)C2=O,8,3,5.4
CN1CCCCN2[C@H](CO)[C@H](c3ccc(-c4ccc(F)cc4)cc3)[C@H]2C1,-4,-5,0.5
CO[C@@H]1CN(C)C(=O)c2ccc(NC(=O)c3ccc(F)cc3)cc2OC[C@@H](C)N(C)C[C@@H]1C,u,x,x
COc1ccc2c3c(n(C)c2c1)[C@@H](CO)N(CC1CC1)CC31CCN(S(=O)(=O)c2cccs2)CC1,u,x,x
O=C(C[C@@H]1CC[C@H]2[C@@H](COC[C@H](O)CN2Cc2cccc(-c3ccncc3)c2)O1)N1CCOCC1,8,11,-2.8
O=C(C[C@@H]1CC[C@@H]2[C@H](COC[C@H](O)CN2C(=O)C2CCCC2)O1)NCc1ccncc1,9,-3,12
CN(C)CCCNC(=O)C[C@@H]1CC[C@@H]2[C@H](COC[C@@H](O)CN2S(=O)(=O)c2ccc(Cl)cc2)O1,7,6,1.4
CO[C@H]1CN(C)C(=O)c2ccc(NC(=O)c3ccccc3F)cc2OC[C@@H](C)N(C)C[C@@H]1C,14,5,9.2
CNC(=O)C[C@H]1CC[C@H]2[C@@H](COC[C@@H](O)CN2C(=O)c2ccc3c(c2)OCO3)O1,4,0,4.3
CO[C@H]1CN(C)C(=O)c2ccc(NC(=O)Nc3c(C)noc3C)cc2OC[C@@H](C)N(C)C[C@@H]1C,5,6,-1.3
COc1ccc(C[C@@H]2CCn3nncc3COC[C@H](CC(C)C)NC2=O)cc1,-4,-2,-2.8
C[C@@H]1CN([C@H](C)CO)C(=O)c2cc(NC(=O)Cc3ccccc3)ccc2O[C@@H](C)CCCCO[C@H]1CN(C)Cc1ccncc1,1,-1,1.4
N#C[C@@H]1[C@H](c2ccccc2/C=C/c2ccccc2)[C@H](CO)N1S(=O)(=O)c1ccccc1,u,x,x
O=C(C1CCOCC1)N1C[C@@H]2[C@H](c3ccccc31)[C@H](CO)N2C(=O)Cc1ccccc1,1,3,-2.3
O=C(c1cccc(F)c1)N1CC2(C1)[C@@H](c1ccccc1)[C@@H](CO)N2C(=O)C1CCC1,5,10,-4.0
Cc1noc(C)c1S(=O)(=O)N(C)C[C@H]1Oc2c(NS(=O)(=O)c3cn(C)cn3)cccc2C(=O)N([C@H](C)CO)C[C@@H]1C,-2,-5,3.2
COc1cccc(CN2[C@H](CO)[C@@H](c3ccccc3)C23CN(C(=O)C2CCOCC2)C3)c1,-2,-5,2.9
CN(C)C(=O)C[C@H]1C[C@@H]2c3cc(NC(=O)Nc4ccccc4F)ccc3O[C@@H]2[C@@H](CO)O1,6,4,2.3
COc1ccccc1-c1ccc2c(c1)[C@H]1[C@H](CCN1S(=O)(=O)c1cccc(F)c1)[C@@H](CO)N2,u,x,x
CO[C@@H](C(=O)N(C)C[C@@H]1OCc2ccccc2-c2c(n(C)c3ccccc23)C(=O)N([C@@H](C)CO)C[C@H]1C)c1ccccc1,2,7,-4.9
CO[C@@H]1CN(C)C(=O)c2ccc(NC(=O)C3CCCCC3)cc2OC[C@@H](C)N(C(=O)Nc2ccc(C(F)(F)F)cc2)C[C@H]1C,u,x,x
CO[C@H](CN(C)C(=O)Nc1ccc(Cl)cc1)[C@H](C)CN(Cc1ccccc1Cl)[C@@H](C)CO,2,1,1.2

# 4 of the entries above in order of their number in DUX4 txn inh, highest first.
SMILES	DUX4 txn inh
CO[C@@H](C(=O)N(C)C[C@@H]1OCc2ccccc2-c2c(n(C)c3ccccc23)C(=O)N([C@@H](C)CO)C[C@H]1C)c1ccccc1	2
C[C@@H]1CN([C@H](C)CO)C(=O)c2cc(NC(=O)Cc3ccccc3)ccc2O[C@@H](C)CCCCO[C@H]1CN(C)Cc1ccncc1	1
Cc1noc(C)c1S(=O)(=O)N(C)C[C@H]1Oc2c(NS(=O)(=O)c3cn(C)cn3)cccc2C(=O)N([C@H](C)CO)C[C@@H]1C	-2
COc1ccc(C[C@@H]2CCn3nncc3COC[C@H](CC(C)C)NC2=O)cc1	-4

# The listing continues.
SMILES,DUX4 txn inh,DUX4 txn inh difference,DUX4 txn inh control
O=C(NC1CCC1)[C@@H]1[C@@H](CO)[C@@H]2Cn3c(ccc(-c4ccc(F)cc4)c3=O)[C@H]1N2,0,-5,4.9
COc1ccccc1-c1ccccc1[C@H]1[C@@H](CO)N(C(=O)C2CC2)[C@H]1C#N,6,3,2.5
O=C(Cc1ccncc1)NCC[C@@H]1CC[C@H](NC(=O)C2CCOCC2)[C@@H](CO)O1,2,2,-0.7
CCC(=O)N1CC2(C1)CN(C(=O)CN1CCOCC1)[C@H](CO)c1[nH]c3cc(OC)ccc3c12,-1,-5,3.5
COCC(=O)N1[C@H](CO)[C@@H]2c3ccccc3N(C(=O)c3ccccc3)C[C@@H]21,-1,2,-2.9
CC(=O)N1CCCCN2[C@H](CO)[C@H](c3ccc(C#Cc4ccccc4F)cc3)[C@H]2C1,u,x,x
COc1ccc(NC(=O)N(C)C[C@H]2OCCCC[C@H](C)Oc3ccc(NC(=O)CCCN(C)C)cc3C(=O)N([C@@H](C)CO)C[C@H]2C)cc1,0,4,-4.1
CCCNC(=O)C[C@@H]1CC[C@H]2[C@@H](COc3ccc(NC(=O)CC)cc3C(=O)N2C)O1,-4,-3,-1.2
Cn1cnc(S(=O)(=O)N2C[C@@H](O)COC[C@@H]3O[C@@H](CC(=O)NC4Cc5ccccc5C4)CC[C@H]32)c1,11,8,3.0
C[C@@H]1CN([C@@H](C)CO)C(=O)CCCn2nncc2CO[C@@H]1CN(C)Cc1ccc(O)cc1,1,-1,1.4
CNC[C@H]1OCCCC[C@@H](C)Oc2ccc(NC(=O)Cc3ccccc3)cc2C(=O)N([C@@H](C)CO)C[C@H]1C,4,-1,4.8
CO[C@@H]1CN(C)C(=O)c2ccc(NC(=O)c3cnccn3)cc2OC[C@H](C)N(CC2CC2)C[C@@H]1C,-1,0,-0.7

# Just DUX4 txn inh, for seven of the compounds above:
SMILES | DUX4 txn inh
O=C(Cc1ccncc1)NCC[C@@H]1CC[C@H](NC(=O)C2CCOCC2)[C@@H](CO)O1 | 2
CCC(=O)N1CC2(C1)CN(C(=O)CN1CCOCC1)[C@H](CO)c1[nH]c3cc(OC)ccc3c12 | -1
COCC(=O)N1[C@H](CO)[C@@H]2c3ccccc3N(C(=O)c3ccccc3)C[C@@H]21 | -1
CC(=O)N1CCCCN2[C@H](CO)[C@H](c3ccc(C#Cc4ccccc4F)cc3)[C@H]2C1 | u
COc1ccc(NC(=O)N(C)C[C@H]2OCCCC[C@H](C)Oc3ccc(NC(=O)CCCN(C)C)cc3C(=O)N([C@@H](C)CO)C[C@H]2C)cc1 | 0
CCCNC(=O)C[C@@H]1CC[C@H]2[C@@H](COc3ccc(NC(=O)CC)cc3C(=O)N2C)O1 | -4
Cn1cnc(S(=O)(=O)N2C[C@@H](O)COC[C@@H]3O[C@@H](CC(=O)NC4Cc5ccccc5C4)CC[C@H]32)c1 | 11

# Next section:
SMILES,DUX4 txn inh,DUX4 txn inh difference,DUX4 txn inh control
N#C[C@@H]1[C@H](c2ccccc2-c2ccccc2)[C@H](CO)N1c1ncc(-c2ccccc2)s1,0,3,-2.6
CCCC(=O)Nc1ccc2c(c1)C(=O)N(C)C[C@H](OC)[C@H](C)CN(C(=O)C1CCCC1)[C@H](C)CO2,-2,0,-2.2
O=C(c1cnccn1)N1CC[C@@H]2[C@@H](CO)Nc3ccc(C#Cc4cccnc4)cc3[C@@H]21,20,14,6.5
COc1cccc(S(=O)(=O)N2CC3(CN(C(=O)Nc4ccc(F)cc4)[C@H](CO)c4[nH]c5cc(OC)ccc5c43)C2)c1,u,x,x
C[C@@H]1CCCCO[C@H](CN(C)Cc2ccc(C(=O)Nc3ccccc3N)cc2)[C@H](C)CN([C@@H](C)CO)C(=O)c2cc(N(C)C)ccc2O1,-1,-4,3.1
Cc1ccccc1-c1ccc([C@@H]2[C@@H](CO)N3C(=O)CN(C(=O)Nc4ccccc4)C[C@H]23)cc1,-8,-6,-2.8
COc1ccccc1S(=O)(=O)N[C@H]1C=C[C@H](CC(=O)N2CCOCC2)O[C@H]1CO,3,0,3.5
C[C@@H]1CN([C@@H](C)CO)C(=O)c2cccc(NC(=O)c3ccncc3)c2O[C@H]1CN(C)Cc1ccc2c(c1)OCO2,0,-3,3.1
CN(C)CC#Cc1ccc([C@@H]2[C@@H](CO)N3CCCCN(C(=O)CN(C)C)C[C@@H]23)cc1,15,4,11
COc1ccc(S(=O)(=O)N(C)C[C@H]2Oc3ccc(N(C)C)cc3CC(=O)N([C@@H](C)CO)C[C@@H]2C)cc1,-3,-7,3.3
N#Cc1ccc(-c2ccc(C3[C@H]4CNC[C@@H]3N4S(=O)(=O)c3ccc(-c4ccccc4)cc3)cc2)cc1 (some centres not stated),7,-10,17
Fc1cccc(-c2ccc(C3[C@@H]4CN(Cc5cncnc5)C[C@H]3N4)cc2)c1 (some centres not stated),u,6,-1.0
O=C(NCCN1CCCC1)[C@H]1[C@H](CO)[C@H]2Cn3c(cccc3=O)[C@H]2N1Cc1ccccn1,0,0,-0.2
CN(C)CC(=O)N1CC[C@@H]2[C@H]1c1cc(-c3ccccc3F)ccc1N(C)[C@@H]2CO,9,-13,22
COCC(=O)N1CC(=O)N2[C@H](CO)[C@H](c3ccc(C#Cc4cccc(OC)c4)cc3)[C@@H]2C1,9,0,9.1
CCS(=O)(=O)N1CC2(CN(Cc3cccc(Cl)c3)[C@@H](CO)c3c2c2ccc(OC)cc2n3C)C1,u,x,x
CO[C@@H]1CN(C)C(=O)c2cc(NC(=O)NC(C)C)ccc2OC[C@H](C)N(Cc2ccccc2)C[C@H]1C,-8,-7,-0.8
O=S(=O)(c1ccc(F)cc1)N1CCCCN2[C@@H](CO)[C@H](c3ccc(-c4cncnc4)cc3)[C@@H]2C1,-6,-14,7.6
O=C(C1CCCCC1)N1[C@H](CO)[C@@H]2c3ccccc3N(S(=O)(=O)c3ccccc3)C[C@@H]21,3,3,0.1
C[C@H](CO)N1C[C@H](C)[C@H](CN(C)S(=O)(=O)c2ccccc2)Oc2ccc(NC(=O)Nc3ccc4c(c3)OCO4)cc2CC1=O,1,0,1.3
O=C(C[C@@H]1CC[C@H]2[C@@H](COC[C@H](O)CN2Cc2cccc(F)c2)O1)NCC1CCCCC1,u,x,x
COc1ccccc1CNC(=O)C[C@H]1CC[C@@H]2[C@H](COC[C@@H](O)CN2Cc2cccc(-c3ccncc3)c2)O1,u,x,x
COc1ccccc1C(=O)N1C[C@@H]2[C@H](c3ccccc31)[C@@H](CO)N2C(=O)C1CCOCC1,0,-1,1.1
CC(C)N(C[C@@H]1[C@H](c2ccccc2)[C@@H](CO)N1S(C)(=O)=O)C(=O)CN(C)C,6,1,4.7
CN(C)CC(=O)N[C@@H]1CC[C@H](CC(=O)O)O[C@@H]1CO,-5,-11,5.8
C[C@@H]1CCCCO[C@H](CN(C)S(=O)(=O)c2cccs2)[C@@H](C)CN([C@H](C)CO)C(=O)c2cc(N(C)C)ccc2O1,0,1,-1.1
O=C(C[C@H]1CC[C@H]2[C@@H](COC[C@@H](O)CN2Cc2ccccc2)O1)NCc1ccccc1Cl,1,2,-0.3

# Sorted by molar mass (lowest first): 3 of the compounds above
SMILES,DUX4 txn inh,DUX4 txn inh difference,DUX4 txn inh control
CN(C)CC(=O)N[C@@H]1CC[C@H](CC(=O)O)O[C@@H]1CO,-5,-11,5.8
CC(C)N(C[C@@H]1[C@H](c2ccccc2)[C@@H](CO)N1S(C)(=O)=O)C(=O)CN(C)C,6,1,4.7
O=C(C[C@@H]1CC[C@H]2[C@@H](COC[C@H](O)CN2Cc2cccc(F)c2)O1)NCC1CCCCC1,u,x,x

# Screens as filed in PubChem BioAssay.
